High-throughput results (PubChem)
Sa helicase inh: inhibitors of S. aureus replicative helicase, primary screen, biochemical, fluorescence unwinding readout; actives 0.05% (n = 120,000); inhibition, %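 (tested at about 80 µM)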; AID 485395, 2010; purified S. aureus helicase, fluorescence unwinding assay; about half of the hits fall short of the stated cut;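 active means both duplicates at 50% or more, or one of them with a favoured structure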;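 further: 0% = mean of negative control wells and 100% = mean of positive control wells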
MgrA-DNA mod: S. aureus MgrA activity modulators, primary screen, biochemical, S. aureus Newman, fluorescence polarization; actives 0.13% (n = 84,000); MgrA-DNA binding; inhibition, %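 (about 10 µg/mL by stock and volumes)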;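 active means above 50% in either of two replicates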;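 further: 0% = protein plus DNA without compound and 100% = DNA alone without protein; higher means less MgrA bound to DNA so lower polarization; one replicate is shown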
The depositor's hits bear a star; / = no result given; & = joins results of further samples. Some of the compounds tested (hit frequency here may not be typical).

SMILES	Sa helicase inh	MgrA-DNA mod
Cc1ccc(NC(=O)Nc2ccc(C(F)(F)F)cc2)cc1NS(C)(=O)=O	20	/
CCOC(=O)/C(C#N)=C/Nc1nnc(SCC#N)s1	14	/
COc1ccccc1NC(=O)CCn1c(=O)sc2ccccc21	-1	/
COc1cc(C(=O)N2CCCCC2)cc(OC)c1OC	/	0.6
O=C(CC(=O)c1cccnc1)c1cccnc1	/	0.3
O=C(Nc1cccc2ncccc12)c1cc2ccccc2o1	12	-2.6
O=C(Cc1n[nH]c(=O)c2ccccc12)NCC(c1ccc(F)cc1)N1CCOCC1 (stereo unspecified)	7	/
CCN(C(=O)CSc1ncnc2ccccc12)C1CCCCC1	-4	-2.6
COc1ccc(CCNC(=O)C2CCCCC2)cc1OC	/	0.0
CCOC(=O)c1cc(-c2ccc(Br)s2)n[nH]c1=O	15	/
O=C1NC2(CCCCC2)Nc2ccccc21	-22	/
CC(C)c1ccc(Nc2c(-c3ccc(N(C)C)cc3)nc3nc[nH]n23)cc1	9	5.8
Cc1nc2ccccc2nc1Sc1nnc(-c2ccccc2)o1	-3	0.9
NC(CO)C(=O)NNCc1ccc(O)c(O)c1O (stereo unspecified)	/	5.7&7.9
CCCCS(=O)(=O)Nc1ccc(Cc2ccncc2)cc1	-9	-0.2

Shown with two lines to a compound: 3 of the compounds above
Value order: Sa helicase inh	MgrA-DNA mod
CCOC(=O)c1cc(-c2ccc(Br)s2)n[nH]c1=O
 : 15	/
O=C1NC2(CCCCC2)Nc2ccccc21
 : -22	/
CC(C)c1ccc(Nc2c(-c3ccc(N(C)C)cc3)nc3nc[nH]n23)cc1
 : 9	5.8

Next section.
SMILES	Sa helicase inh	MgrA-DNA mod
Cc1oc(-c2ccccc2)nc1CSc1nc2ncccc2[nH]1	13	/
Cn1c(=O)c2c(n(C)c1=O)=NC1(CCCCC1)N=2	-1	0.6
COC(=O)C1=NNC2(C)C(=O)N(c3ccccc3)C(=O)C12 (stereo unspecified)	-8	-0.8
O=C(O)C1C2CCC1C(O)C2 (stereo unspecified)	/	-2.3
COc1ccc(-c2nc(SCC(=O)Nc3cccc(C)c3)c3c(=O)n(C)c(=O)n(C)c3n2)cc1	1	/
Cc1ccc(-n2sc(=O)n(Cc3ccc(F)cc3)c2=O)cc1	/	15
Cc1ccccc1OC(C)C(=O)N1CCCc2ccccc21 (stereo unspecified)	-8	0.2
CCc1nc(C#N)c(N2CCCCC2)o1	17	/
O=C(N1CCCC1)C1(S(=O)(=O)c2ccc(Cl)cc2)CC1	8	/
O=C(NNC(=S)Nc1cc(Cl)ccc1Cl)C(O)(c1ccccc1)c1ccccc1	/	6.6
CCC1CC(CN=CC2=C(O)CC(C)(C)CC2=O)C1(C)C (stereo unspecified)	-16	0.7
CCOC(=O)c1c(CN2CCN(c3ccccc3C)CC2)n(-c2ccccc2)c2cc(Br)c(OC(C)=O)cc12	/	-2.9
COc1ccc(CNc2ccc3nc4ccc(C)cc4c(=O)n3n2)cc1	21	/
CCOC(=O)/C=C1\SCC(=O)N1CCOC(=O)c1ccccc1SC	-13	/
O=C(Nc1cccc2cccnc12)C1CC(=O)N(C2CCCC2)C1 (stereo unspecified)	6	/
Cc1cc(C)nc(NS(=O)(=O)c2ccc(Nc3cc(Cl)c4nonc4c3[N+](=O)[O-])cc2)n1	/	24
CCN1CCN(C(=O)c2ccc3c(c2)sc2nc(-c4ccc(C)cc4)cn23)CC1	14	/
O=C(c1cnc2sccn2c1=O)N1CCCc2ccccc21	7	/
CCOc1ccc2nc(SCCN(C)C)[nH]c2c1	-23	/
CNC(=O)CSc1cn(CC(=O)N2CCC(C)CC2)c2ccccc12	9	-0.4
C#CC(CC)(CC)NC(=O)c1oc2ccccc2c1CSc1nc(C)cs1	-6	/
O=C1ON=C2C3CC4CC12CC1(C3)C(=O)ON=C41	1	-2.0
COc1ccc(CCNC(=O)CN2C3CCCC2CC(=O)NC3)cc1OC (stereo unspecified)	18	-2.3
COc1cccc(NC(=O)Nc2nnc(N3CC(C)CC(C)C3)s2)c1 (stereo unspecified)	-11	/
Nc1cc(N)nc(SCC(=O)NC(=O)NC2CCCC2)n1	-14	/
COc1ccc2cc(C(C)C(=O)Nc3cc(Cl)cc(Cl)c3)ccc2c1 (stereo unspecified)	/	5.2
Nc1ccccc1-c1ccccc1N	-25	1.6
CCCC1=NN2C(=N)/C(=C/c3ccc(OCCOc4ccccc4)cc3)C(=O)N=C2S1	-1	0.6
CN(Cc1ccccc1)C(=O)COC(=O)c1ccc(I)cc1	-24	0.8
NC(=O)C1CC(=O)N(c2ccccc2)C1 (stereo unspecified)	2	0.9
Cc1cc(NC(=O)CC(C)C)c(=O)n(Cc2ccccc2F)c1	4	3.4
CCCCn1c(/N=C/c2nc3ccccc3n2C)nc2ccccc21	-14	8.9
CC(=O)Nc1cccc(F)c1/C(N)=N/OC(C)=O	-35	/
O=S(=O)(c1ccccc1C(F)(F)F)N1CCNCC1	2	/
c1cc2c(cc1-c1nnc(CC34CC5CC(CC(C5)C3)C4)o1)OCO2	-38	/
CC(C)CNC(=O)c1cc(-c2cccc(O)c2)on1	19	/
CCOC(=O)C1=C(C)N=c2s/c(=C/c3ccc(OC(C)=O)cc3)c(=O)n2C1c1ccc(OC)c(OC)c1 (stereo unspecified)	/	-2.6
CC1CCCCN1C(=O)c1ccccc1NS(=O)(=O)c1ccc(F)cc1 (stereo unspecified)	-4	1.4
O=C(c1cccc(F)c1)N1CCN(C(=O)c2cccc3ccccc23)CC1	1	1.9
O=C(O)CCCCc1nc2ccccc2[nH]1	14	/
CN(C)c1ccc(C2ON2C2CCC(O)CC2)cc1 (stereo unspecified)	2	0.0
O=C(O)C12CC3CC(CC(O)(C3)C1)C2	/	2.4
Cc1cc(-c2ccco2)n(CC(=O)NCc2ccccc2Cl)n1	14	4.4
O=c1cc(-c2ccccc2)nc2c(-c3ccccc3)c(C(F)(F)F)[nH]n12	/	3.5
O=C1OC(c2ccccc2)=C/C1=C/c1ccc(Cl)cc1	15	1.6
O=C1N=c2ccccc2=C1c1sc(N2CCCCC2)nc1O	7	/
COc1cc(/C=C(\C#N)c2nn(-c3ccccc3)c(-n3cccc3)c2C#N)cc(OC)c1OC	/	-1.9
CN(C)c1ccc(/C=C2/C(=N)N3N=C(COc4ccccc4)SC3=NC2=O)cc1	-2	-2.9
CCOc1ccc(NC(=O)/C(C#N)=C\c2cc(C)n(C)c2C)cc1	-10	0.3
Cc1oc(C(=O)O)cc1COc1cccc2ccccc12	6	5.0
Cc1ccc(NC(=O)CCNS(=O)(=O)c2ccc3[nH]c(=O)ccc3c2)cc1Cl	-28	/
CCOC(=O)c1nnn(-c2cccnc2)c1C	0	-2.7
COC(=O)c1ccc(/C=N/NC(=O)CO)cc1	9	-1.7
CCOC(=O)c1sc(N)nc1-c1ccccc1	8	/
CC1C2CC(C/C2=N\NC(N)=S)C1(C)C (stereo unspecified)	/	2.7
O=C(CC1CCCCC1)OCn1nnc2ccccc2c1=O	15	0.1
Cc1cc(C)n2nc(SCc3nc4ccc(Cl)cc4n3CCO)nc2n1	-13	/
O=C1/C(=C\c2ccc(-c3ccc(Cl)c(Cl)c3)o2)SC(=S)N1C1CCS(=O)(=O)C1 (stereo unspecified)	/	1.1
NC(=O)/C=C/C(=O)Nc1ccccc1Cl	/	1.1
N=C1C(c2nc3ccccc3[nH]2)=C(O)C(c2ccccc2)N1c1ccc2[nH]c(=O)[nH]c2c1 (stereo unspecified)	-27	/

(cont.)
SMILES	Sa helicase inh	MgrA-DNA mod
O=C(NCCN1CCN(c2nccc(C(F)(F)F)n2)CC1)c1ccccc1	/	1.1
CCOC(=O)C1=C(CC)OC(N)=C(C#N)C1c1ccccc1 (stereo unspecified)	/	0.4
COC(=O)C1CN(C(=O)COc2ccccc2OC)c2ccccc2O1 (stereo unspecified)	1	/
CC(C(=O)NCCCn1ccnc1)(c1ccccc1)c1ccccc1	2	-4.8
COC(CNC(=O)c1cc(C)nn1-c1ccccc1)OC	11	-0.8
c1ccc(Cc2nc3ccccc3o2)cc1	1	-1.9
COc1ccc2cc(C(=O)N3CCOCC3)sc(=O)c2c1OC	22	/
O=C(c1cnn2c1NC(c1ccc3c(c1)OCO3)CC2C(F)(F)F)N(Cc1ccccc1)Cc1ccccc1 (stereo unspecified)	/	1.8
CC1CC(C)CN(S(=O)(=O)c2cccc(C(=O)Nc3ncn[nH]3)c2)C1 (stereo unspecified)	-20	/
O=C(O)c1cccnc1C(=O)N1CCc2c([nH]c3ccccc23)C1C(F)(F)F (stereo unspecified)	/	3.0
O=C(Cc1ccc(Cl)cc1)NCCSc1ccccc1	/	1.2
Cc1cc(C)n(-c2ccc(C(=O)NCCc3ccc(S(N)(=O)=O)cc3)cc2)n1	6	/
Cc1cc(C)n(CNc2nccs2)n1	-2	1.8
CN(C(=O)c1cn(C)c(=O)cc1C(F)(F)F)c1ccc(Cl)c(Cl)c1	/	-0.5
Cc1nnsc1-c1nc(C(=O)O)cs1	/	3.0

Shown with values under each structure: four of the compounds above
Every second line gives: Sa helicase inh, MgrA-DNA mod
O=C(NCCN1CCN(c2nccc(C(F)(F)F)n2)CC1)c1ccccc1
  /, 1.1
CCOC(=O)C1=C(CC)OC(N)=C(C#N)C1c1ccccc1 (stereo unspecified)
  /, 0.4
COC(=O)C1CN(C(=O)COc2ccccc2OC)c2ccccc2O1 (stereo unspecified)
  1, /
CC(C(=O)NCCCn1ccnc1)(c1ccccc1)c1ccccc1
  2, -4.8

(list continues)
SMILES	Sa helicase inh	MgrA-DNA mod
N#Cc1ccc(N=C/C(Br)=C/c2ccccc2)cc1	-29	-2.1
CCOC(=O)c1oc2ccccc2c1COC(=O)c1c(CC)noc1C	5	/
CCN(CC)C(=O)/C(C#N)=C/c1cc(Br)cs1	-6	/
Cc1nc(-c2ccccc2)sc1C(=O)/C=C/N(C)C	12	/
Cc1ccc(-c2csc(Nc3ccc4c(c3)OCO4)n2)cc1C	14	-1.1
Cc1ccc(CNC(=O)CCCn2c(=O)c3ccccc3n(CC(=O)c3ccccc3)c2=O)cc1	17	/
C[C@]1(C(=O)NN)C[C@]1(C)C(=O)NN	/	-1.8
COC(=O)c1cscc1NC(=O)CC(CC(=O)O)c1ccccc1 (stereo unspecified)	/	-3.4
O=C(NC1CCS(=O)(=O)C1)C1CCCC1 (stereo unspecified)	-9	/
Cc1ccc2oc(=O)c3cc(C(=O)NCCCN4CCCC4)sc3c2c1	0	/
CC1=COC=C(C=NCc2ccccc2)N1c1ccccc1	-9	0.1
CC(C)Cn1c(SCc2ccc(C#N)cc2)nc2ccccc2c1=O	11	/
Cn1c(=O)c2cc(C(=O)N3CCCCC3)sc2c2ccccc21	-38	/
Clc1ccc(-c2nc3c4ccsc4ncn3n2)cc1	/	-0.6
CCOC(=O)c1oc2ccccc2c1COC(=O)COc1ccccc1OCC	-3	/
Cn1nc(-c2ccc(Cl)cc2)c2cc(C(=O)N3CCCC3)sc21	11	0.3
Cn1ncc2c(=O)n(CC(=O)Nc3cccnc3Cl)cnc21	8	/
O=S(=O)(NC1CCCCC1)c1cccc2nsnc12	/	-1.4
CCC(NC(=O)c1ccccc1NC(=O)c1ccco1)C(=O)Nc1ccc(C)cc1 (stereo unspecified)	6	/
CC1(C)CC(=O)C=C(NCCCn2ccnc2)C1	6	0.2
Cc1cc(C)c(NC(=O)CSc2ccc3nnc(-c4ccccc4)n3n2)c(C)c1	-20	/
CSc1nncc(-c2ccc(Cl)cc2)n1	/	-0.1
COC(=O)c1cc(=O)c2ccc(OC)cc2o1	13	/
COc1cc2nc(-c3ccc4c(c3)C(=O)N(CC(C)C)C4=O)oc(=O)c2cc1OC	-16	0.8
CCN1C(=O)N(c2cc(C)ccc2C)C2CS(=O)(=O)CC21 (stereo unspecified)	10	/
CN(C)C=Nc1ccc2nonc2c1	8	1.4
O=C(O)c1ccc2c(c1)ncn2C1CCCC1	2	/
CC1(C)N=C(c2ccccc2)C(=S)N1C(=O)c1ccccc1	2	0.7
Cc1cc2c(cc1S(=O)(=O)NCC1CCCO1)n(C)c(=O)c(=O)n2C (stereo unspecified)	1	5.4
Cc1cc(C(=O)Nc2ccc3c(c2)OCCO3)oc1C	0	-0.8

The final 4 compounds of the part above are carried over, then new ones follow:
SMILES	Sa helicase inh	MgrA-DNA mod
O=C(O)c1ccc2c(c1)ncn2C1CCCC1	2	/
CC1(C)N=C(c2ccccc2)C(=S)N1C(=O)c1ccccc1	2	0.7
Cc1cc2c(cc1S(=O)(=O)NCC1CCCO1)n(C)c(=O)c(=O)n2C (stereo unspecified)	1	5.4
Cc1cc(C(=O)Nc2ccc3c(c2)OCCO3)oc1C	0	-0.8
Cc1ccc2[nH]cc(CCNC(=O)C3CCCO3)c2c1 (stereo unspecified)	-3	-0.5
O=C(Cc1ccccc1)NCCN1CCCC1	-8	-0.7
CCOC(=O)Nc1ccc2c(C)cc(=O)oc2c1	/	-2.1
Cc1cc(NS(=O)(=O)c2ccc(NS(=O)(=O)c3ccc(F)cc3)cc2)no1	/	1.1
CCc1cccc(NS(=O)(=O)c2cc(Br)cc3c2N(C(=O)C2CC2)CC3)c1	15	-0.6
Cc1ccc(CNC(=O)C2CCC(CNc3nc(=S)[nH]c4ccccc34)CC2)o1 (stereo unspecified)	-10	/
Cc1ccc(N=C2NC(=O)CS2)c(C)c1	-13	0.5
COc1ccc(N2CCN(C(=O)C3(S(=O)(=O)c4ccc(C)cc4)CC3)CC2)cc1	-8	/
COC(=O)c1ccc(COC(=O)c2c(C)nn(Cc3ccccc3Cl)c2Cl)o1	-19	/
CC(C)c1ccc(S(=O)(=O)N2CCN(CC(=O)C(C)(C)C)CC2)cc1	2	/
C=CCNC(=O)C1(c2cccs2)CCOCC1	8	/
COc1ccc(CN2CCC(C(=O)NC3CCCC3)CC2)cc1OC	17	-6.5
